SARS PLP yeast – inhibitors of SARS-CoV papain-like protease in yeast | Potency, µM (highest dose often 32.9 µM), inactives show top-dose activity, positive = growth rescue | S. cerevisiae expressing SARS-CoV PLpro, growth rescue; control for the full effect not named in the record | 330,000 compounds, 0.19% hits | AID 485353; note: 0% is about no effect; nearly all actives have a fitted effect of over 55% in size; growth read by luminescence after 48 h
Cruzain Triton – blocks cruzain activity in presence of Triton detergent; 200,000 compounds, 0.43% hits; purified cruzain, Z-FR-AMC fluorescence, 0.01% Triton; Potency, µM, for the others: max response, negative = inhibition, most hits filed as inhibitors; AID 1478; active = well fitted curve in the direction sought with a large enough effect; inconclusive = small, poorly fitted or top-dose-only effect, or another doubt; inactive = no such curve, though single readings can be large; an effect the other way counts as inactive or inconclusive;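 note: plate controls were neutral wells for no effect and buffer without enzyme for full effect; nearly all actives have a fitted effect of over 40% in size; top concentration of the series not given in the record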
Target sequence (P25779 123-467 limits assumed): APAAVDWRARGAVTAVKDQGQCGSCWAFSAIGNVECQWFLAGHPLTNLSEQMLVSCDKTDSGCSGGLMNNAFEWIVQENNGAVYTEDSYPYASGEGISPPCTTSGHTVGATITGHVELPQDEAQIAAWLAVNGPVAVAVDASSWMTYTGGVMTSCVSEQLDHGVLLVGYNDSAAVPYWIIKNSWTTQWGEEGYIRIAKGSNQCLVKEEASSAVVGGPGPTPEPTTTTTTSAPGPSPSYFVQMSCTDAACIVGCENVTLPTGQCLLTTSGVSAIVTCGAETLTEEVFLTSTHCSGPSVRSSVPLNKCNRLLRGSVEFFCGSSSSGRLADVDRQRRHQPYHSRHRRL
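Compounds were screened in titration against cruzain (1.5 nM) with 0.01% Triton X-100 to counter colloidal aggregation. Activity was the AMC fluorescence increase over 60 s after adding 2 uM Z-FR-AMC at pH 5.5.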
LASV entry inh – Lassa virus entry inhibition | AID 540256 | 300,000 compounds, 1.2% hits | Lassa virus pseudotype entry inhibition, cell reporter; control for the full effect not named in the record | Potency, µM (highest dose often 37.9 µM), without a hit: at the top dose activity change, negative = inhibition, usual class: inhibitors; active means well fitted inhibition curve with a large enough effect; inconclusive means small, poorly fitted or top-dose-only effect, or effect the other way; inactive means flat fitted curve, though single readings scatter; tested in HEK293 cells; note: % is set by controls: 0 for no effect and ±100 for the full control effect; nearly all actives have a fitted effect of over 50% in size; luciferase read-out
MARV entry inh – Marburg virus entry inhibition; 300,000 compounds, 1.8% hits; Marburg virus pseudotyped entry inhibition, cell reporter; control for the full effect not named in the record; about a third of the inactives were read at about 46 µM; Potency, µM (doses to about 37.8 µM), without a hit: at the highest dose activity change, negative = inhibition, hits mostly inhibitors; AID 540276; active = well fitted inhibition curve with a large enough effect; inconclusive = small, poorly fitted or top-dose-only effect, or effect the other way; inactive = flat fitted curve, though single readings scatter; tested in HEK293 cells; about a fifth of its hits are not listed in these tables; note: % is set by controls: 0 for no effect and ±100 for the full control effect; luciferase read-out
RE007 growth inh – less growth of the S. pombe RE007 Vpr strain | Potency, µM (top dose mostly 92.2 µM), for inactives: at the top dose activity change, negative = less growth | 360,000 compounds, 0.21% hits | S. pombe RE007 Vpr strain, BacTiter-Glo ATP luminescence, 24 h; control for the full effect not named in the record; active = well fitted falling curve with a large enough effect; inconclusive = small, poorly fitted or top-dose-only effect; inactive = no such curve, though single readings can be large or run the other way;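 note: % is set by controls: 0 for no effect and ±100 for the full control effect; nearly all actives have a fitted effect of over 50% in size; the assay follows cell death caused by Vpr and the record does not say whether a fall means rescue or toxicity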
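Fission yeast RE007 carrying one integrated HIV-1 vpr copy, seeded at OD 0.01 in PMG+AL medium with 23 nL pinned compound. Grown 24 h at 30 degrees; viability read by BacTiter-Glo luminescence after 5 min.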
StopGo reporter – lowers the luciferase signal of an FMDV 2A StopGo reporter; human cells with a luciferase reporter of 2A StopGo recoding; control for the full effect not named in the record; Potency, µM (series often up to 57.9 µM), for inactives: top-dose signal change, negative = less light; 410,000 compounds, 1.2% hits; AID 1159524; active = well fitted falling curve with a large enough effect; inconclusive = small, poorly fitted or top-dose-only effect; inactive = no such curve, though single readings can be large or run the other way; tested in HEK293T cells; note: % is set by controls: 0 for no effect and ±100 for the full control effect; nearly all actives have a fitted effect of over 45% in size; luciferase light after 4 h
NS1 inh – inhibitors of influenza NS1 protein function; S. cerevisiae slowed by influenza A NS1, growth recovery by OD600; 270,000 compounds, 0.4% hits; AID 2326; Potency, µM (titrated, usually from 46.1 µM), for inactives: at the top dose activity, positive = more growth; note: actives are rising curves; nearly all actives have a fitted effect of over 50% in size
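Recovery from NS1-induced slow growth read by OD600 in budding yeast switched to galactose assay medium (pH 6.0, -URA) at 1:100 dilution. Compound 23 nl per well; the matching strain lacking NS1 serves as control.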
Cruzain inh noDet – cruzain (T. cruzi) inhibition without detergent; P25779; purified cruzain, Z-FR-AMC fluorescence, no detergent; Potency, µM, for inactives: max response, negative = inhibition, usual class: inhibitors; 200,000 compounds, 2.3% hits; AID 1476; active = well fitted curve in the direction sought with a large enough effect; inconclusive = small, poorly fitted or top-dose-only effect, or another doubt; inactive = no such curve, though single readings can be large; an effect the other way counts as inactive or inconclusive;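 note: plate controls were enzyme without inhibitor for no effect and buffer without enzyme for full effect; nearly all actives have a fitted effect of over 40% in size; top concentration of the series not given in the record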
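Detergent-free condition (0.00005% Triton X-100) in acetate buffer pH 5.5 with DTT. 1.5 nM enzyme and compound were pre-mixed 15 min, then 2 uM Z-FR-AMC substrate added; reaction progress from fluorescence change between first and third reads (60 s).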
* hit, by the source's call; ? = inconclusive; · = no result given; & = joins results of further samples; [ ] = remark or other dose. Unless noted, calls come from the whole dose curve; as a rule, active means well fitted rising curve with a large enough effect; inconclusive means small, poorly fitted or top-dose-only effect; inactive means no such curve, though single readings can be large or run the other way. Potency is the fitted concentration of half-maximal effect.

SMILES	SARS PLP yeast	Cruzain Triton	LASV entry inh	MARV entry inh	RE007 growth inh	StopGo reporter	NS1 inh	Cruzain inh noDet
CCOC(=O)N1CCC(NC(=O)CS(=O)(=O)Cc2nc(-c3cccc(Cl)c3)oc2C)CC1	2%	·	·	·	-1%	-26%	-4%	·
Cc1ccc(CNC(=O)c2ccccc2CCc2ccccc2)cc1	-6%	-4.8%	3%	?	22%	·	-4%	-1%
COc1ccccc1C(=O)NC(=S)Nc1ccc2[nH]c(=O)[nH]c2c1	0%	·	?	?	2%	7%	2%	·
CC1CCC(NC(=O)CN2C(=O)NC(C)(C)C2=O)CC1 (stereo not given)	4%	·	?	7%	6%	2%	·	·
Cc1cc2[nH]c(=O)c(=O)[nH]c2cc1S(=O)(=O)N1CCN(c2ccccc2F)CC1	4%	·	29%[46.1 µM]	·	-7%	-12%&9%	3%	·
Cc1ccc(-n2nc3c(=O)n(CCCC(=O)NCCc4ccccc4)nc(C)c3c2C)cc1	-3%	4.9%	20%[46.1 µM]	·	-9%	3%&17%	22%	1%
CCNC(=S)NN=C1CCC(C(C)(C)C)CC1 (stereo not given)	-5%	2.2%	-2%	3%	-27%	-2%	-7%	4%
NC1C2CN3CCN(C2)CC1(c1ccccc1)C3 (stereo not given)	1%	·	·	·	5%	-16%	12%	·
CCn1c(SCC(=O)N/N=C/c2ccccc2OCC(=O)O)nnc1-c1ccccc1	2%	·	·	·	-17%	-21%	-1%	·
O=C(NC1CC1)C1CCN(C2CCN(C(=O)/C=C/c3cccc(F)c3F)CC2)CC1	1%	·	-10%[46.1 µM]	9%[46.1 µM]	-10%	0%	3%	·
O=C(COC(=O)c1ccc(S(=O)(=O)N2CCOCC2)cc1)Nc1ccccc1OC(F)F	3%	·	-1%	2%	2%	-7%	·	·
CN1C=CC=C/C1=C1\SC(=S)N(C2CCCCC2)C1=O	-2%	-9.6%	-2%	-13%	-8%	14%	-6%	-11%
Cc1cc(C)nc(NS(=O)(=O)c2ccc(NC(=O)Cn3c(=O)oc4ccccc43)cc2)n1	-2%	1.6%	·	5%	-11%	16%	-30%	-9%
COCCNC(=O)C(c1ccc(Cl)cc1)N(C(=O)Cn1nnc2ccccc21)c1cccnc1 (stereo not given)	0%	·	-1%	21%[46.1 µM]	-20%	-2%	4%	·
Cc1c(C)c2ccc(O[C@@H]3O[C@H](CO)[C@H](O)[C@H](O)[C@H]3O)c(C)c2oc1=O	-2%	·	-5%[46.1 µM]	?	-26%	-7%	1%	·
CCOc1ccc(NC(=O)c2ccc3nc(C(C)C)oc3c2)cc1	·	-0.8%	7%[46.1 µM]	·	·	-27%	·	-2%
Cc1c(C(=O)N2CCCC2)c(S(=O)(=O)NCC(C)c2ccccc2)c(C)n1C (stereo not given)	4%	·	·	·	7%	3%	13%	·
Cc1nnc(SCC(=O)NN2C(=O)NC3(CCCCC3)C2=O)s1	-3%	-0.3%	-19%	?	-4%	-22%	5%	11%
C#CCSc1nnc(-c2ccc(OC)cc2)o1	19%	3.0%	-14%	?	-12%	26%	-95%	-7%
CCn1c(Cc2ccccc2)nnc1SCC(=O)N1CCCCC1	0%	-0.6%	1%	10%[46.1 µM]	15%	17%	-4%	4%
CN1CC(=O)Nc2cc(C(=O)O)ccc21	·	0.0%	23%[46.1 µM]	·	·	-7%	·	1%
Oc1ccccc1OCc1nc2ccccc2s1	-6%	-0.1%	-14%	?	7%	54%[activator]	-6%	-8%
N#Cc1ccc(Oc2ccc(/C=N/O)cn2)cc1	0%	1.8%	25%	4%	14%	-8%	8%	-1%
Cc1nc(C(=O)Nc2ccc(F)cc2)nn1-c1ccc([N+](=O)[O-])cc1	1%	-5.5%	4%	16%	6%	4%	-4%	0%
CCOC(=O)/C(=N/Nc1ccccc1)Sc1nnc(CCc2ccccc2)n1-c1ccccc1	-10%	-12%	-3%	3%	3%	22%	27%	2%

More results follow.
SMILES	SARS PLP yeast	Cruzain Triton	LASV entry inh	MARV entry inh	RE007 growth inh	StopGo reporter	NS1 inh	Cruzain inh noDet
COc1cc2nc(N(CCCN(C)C)C(=O)c3ccc(C(=O)c4ccccc4)cc3)sc2cc1OC	-2%	·	-22%	?	-14%	-21%	·	·
CC(=O)c1c(C)[nH]c(C(=O)Nc2ccccc2Cl)c1C	·	·	5%[46.1 µM]	-7%[46.1 µM]	-18%	43%[activator]	-11%	·
C=CCN1C(=O)/C(=C/c2ccc(OC)cc2)S/C1=N/c1nccs1	-1%	-3.2%	?	4%	3%	1%	5%	1%
CC1CCN(c2ccc([N+](=O)[O-])c(SCCO)c2)CC1	-2%	·	-18%[46.1 µM]	-15%[46.1 µM]	-2%	?	-31%	·
O=P(CCN1CCCCC1)(c1ccccc1)c1ccccc1	-5%	6.5%	-1%	10%	-15%	15%	15%	11%
COc1ccc(OC)c(NC(=O)Cn2c(-c3ccc(Cl)cc3)noc2=O)c1	8%	4.3%	3%	0%	-8%	-22%	0%	-4%
CCN(C(=O)CN1C(=O)c2ccc([N+](=O)[O-])cc2C1=O)C1CCCCC1	-4%	·	·	·	-6%	-16%	-12%	·
COc1ccc(Cc2nnc(NC(=O)c3ccccc3Cl)s2)cc1OC	2%	·	·	·	12%	-19%	-4%	·
O=C(Nc1nc(-c2nc3ccccc3s2)cs1)C1COc2ccccc2O1 (stereo not given)	1%	-4.7%	·	·	165%	39%[activator]	-83%	?
COc1cc(SC)ccc1C(=O)OCC(=O)N1CC(=O)Nc2ccccc21	-10%	·	-3%	-1%	-10%	17%	·	·
C/C(=N\NC(=O)C1CC1)c1ccc(C(C)(C)C)cc1	2%	·	·	·	8%	5%	3%	·
Cc1ccnc(Sc2ccc([N+](=O)[O-])cn2)n1	0%	·	·	·	0%	31%[activator]	1%	·
COc1ccnc(Oc2ccc(C)cc2C)c1C#N	?	-1.2%	15%	6%	-5%	·	-9%	6%
Cc1ccccc1NC(=O)Cn1c(=O)n(CC2CCC(C(=O)NCCc3ccccc3)CC2)c(=O)c2ccccc21 (stereo not given)	·	-1.4%	0%[46.1 µM]	-2%[46.1 µM]	·	-22%	·	4%
O=C(OCCN=C1NS(=O)(=O)c2ccccc21)c1cccc([N+](=O)[O-])c1	-2%	·	21%[46.1 µM]	15%[46.1 µM]	-2%	18%	-5%	·
COc1cccc(CNC(=O)Cn2cc3c(n2)-c2c(oc(C(=O)N4CCCC4)c2C)CC3)c1OC	·	-3.4%	-25%[46.1 µM]	·	·	?	·	18%
CC1(C)Nc2ccccc2C(=O)N1c1ccccc1	-2%	·	19%[46.1 µM]	10%[46.1 µM]	-16%	1%	-12%	·
Cc1cc(-c2csc(NC(=O)c3cc4ccccc4o3)n2)c(C)n1C	-10%	-5.8%	-2%	-11%&-11%	-1%	-2%	15%	16µM*
COc1ccc(-c2cc(C(=O)Nc3cc(OC)c(OC)c(OC)c3)no2)cc1	-3%	·	·	1%	-6%	0%	-2%	·
O=C1CC(c2ccc(F)cc2)C(n2cncn2)C(O)=C1C1NCCc2ccccc21 (stereo not given)	-1%	·	·	-7%[46.1 µM]	-2%	3%	·	·
O=C1CCCCC1C(Nc1ccc(Br)cc1)c1ccccc1 (stereo not given)	-32%	-0.5%	?	?	14%	-22%	-51%	-5%
Nc1ccc(Nc2ccccc2N)cc1	-7%	-9.1%	?	-23%	-12%	1%	14%	25µM*
Cc1ccc(NC(=O)c2cccc3c2C(=O)N(C2CCCCC2)C3)cc1	?	-7.9%	?	-16%	3%	16%	-3%	-11%
O=C(c1ccccc1-c1nc(-c2ccc(Cl)cc2)no1)N1CCCC1	3%	-3.3%	-24%	?	-6%	·	-42%	?
CC1(C)OC(=O)C=C(CC2NS(=O)(=O)OC3CCCCC23)O1 (stereo not given)	1%	·	·	·	8%	-8%	-2%	·

Other results follow:
SMILES	SARS PLP yeast	Cruzain Triton	LASV entry inh	MARV entry inh	RE007 growth inh	StopGo reporter	NS1 inh	Cruzain inh noDet
CCC(=NCCN1CCOCC1)c1c(O)n(C2CCCCC2)c(=O)[nH]c1=O	3%	·	?	9%[46.1 µM]	0%	-5%	-43%	·
COC(=O)c1ccc(NC(=O)C(=O)N2CCN(C(=S)Nc3cccc(OC)c3)CC2)cc1	-8%	-3.9%	1%	5%	·	-5%	3%	15%
CCOC(=O)c1cccc(NC(=S)N2CCN(c3ncc4c(=O)c(C(=O)O)cn(CC)c4n3)CC2)c1	1%	·	-5%	?	0%	-25%	·	·
CCCSc1nnc(CN2CCOCC2)n1C	4%	3.6%	15%	?	-1%	13%	3%	-1%
CCS(=O)(=O)c1ccc(O)c(NC(=O)Nc2ccc(C(C)(C)C)cc2)c1	-2%	·	?	?	1%	?	-1%	·
COc1ccc(C)cc1S(=O)(=O)N(CC(=O)Nc1cccc([N+](=O)[O-])c1)c1cc(C)cc(C)c1	4%	2.0%	?	-13%	0%	·	9%	?
COc1ccc(OC)c(S(=O)(=O)n2cnc3cc(C)c(C)cc32)c1	-3%	-5.1%	-3%	-30%	58%	16%	-86%	12%
O=C(CNC(=O)C1CCCC1)Nc1ccccc1Br	6%	·	9%	22%	15%	-12%	·	·
COc1ccc(NC(=O)C(c2ccc(C)cc2)N(C)C(=O)Cc2cccs2)cc1 (stereo not given)	-41%	-7.5%&0.6%	?	-25%[46.1 µM]	-14%	10%&9%	-10%	1%&12%
NC(=O)c1cccnc1Oc1ccc(Cl)cc1Cl	-1%	·	-18%[46.1 µM]	?	-4%	50%[activator]	1%	·
COc1ccc(C)cc1S(=O)(=O)N(CC(=O)N1CCCC1)c1ccc(C)cc1	·	·	-10%	-2%	1%	11%	·	·
CCCCCCCCS(=O)c1sc2nc(C)cc(C)c2c1N (stereo not given)	-6%	-10%	0%	-9%	4%	-22%	-56%	15%
CC1(C)CC(NS(=O)(=O)c2cccc3ccccc23)CC(C)(C)N1	1%	·	19%	-20%	-12%	0%	16%	·

Screening results from PubChem BioAssay.
